High-throughput results (PubChem BioAssay)
Mtb growth = Mycobacterium tuberculosis H37Rv growth inhibition, putative kinase inhibitor library, confirmatory dose response (AID 2842); inhibition, % at 10 µg/mL; hits with a dose series show IC90 in µg/mL; M. tuberculosis H37Rv growth inhibition; higher % means a stronger effect; some inactives read as strong as hits; hit rate 5.2% among 24,000;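 active = confirmed in a dose series; about a fifth of its hits are not listed in these tables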;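 note: bacteria incubated one week before Alamar blue readout; 0% = bacteria only wells and 100% = bacteria with high antibiotic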
An asterisk follows results filed as active.

SMILES	Mtb growth
O=C(CN1C(=O)c2ccccc2C1=O)Nc1nc(-c2cccnc2)cs1	-19%
O=C(Nc1nnc(-c2ccc(Br)cc2)o1)c1cccc(Br)c1	81%
Cc1ccc2nc(N(CCCn3ccnc3)C(=O)c3cccs3)sc2c1	1.7µg/mL*
CCCCCCN1C(=O)/C(=C2\SC(=S)N(CCC(=O)O)C2=O)c2cc(Br)ccc21	-16%
COc1cc2c(=O)c(S(=O)(=O)c3ccc(C)cc3)cn(Cc3ccc(F)cc3)c2cc1OC	8%
CC(=O)N1CCc2c(sc(NC(=O)c3cccc(Br)c3)c2C(N)=O)C1	29%
CC(=O)N1CCc2c(sc(NC(=O)c3ccc(Br)cc3)c2C(N)=O)C1	60%
Cc1cccc(OCC(=O)NC2CC(=O)N(c3cccc(F)c3)C2)c1 (stereo unspecified)	-5%
Cc1ccc(-n2c(=O)[nH]cc(C(=O)Nc3ccc(C)c(F)c3)c2=O)cc1C	-4%
Cc1nc(C)n(CCNS(=O)(=O)c2ccccc2)n1	-7%
Cc1nc2sc(C(c3ccc([N+](=O)[O-])cc3)N3CCOCC3)c(O)n2n1 (stereo unspecified)	-5%
Nn1c(SCC(=O)Nc2ccc(F)cc2F)nncc1=O	-5%
Cc1cc(Br)cc(C)c1Nc1ncnc(N)c1[N+](=O)[O-]	10%
COc1ccc(NC(=O)c2oc3ccccc3c2NC(=O)c2ccc(Br)o2)cc1OC	-6%
Cc1ccc(Cn2c(SCC(=O)Nc3ccc(C)c(C)c3)nc3c(oc4ccccc43)c2=O)cc1	-8%
COc1cccc2sc(Nc3nc(-c4ccncc4)cs3)nc12	43%
Cc1cc(NC(=O)c2cc3ccccc3o2)nc2c1c(=O)oc1ccccc12	-2%
Cc1nn2c(C(=O)NCc3cccnc3)c(C(=O)Nc3cc(Cl)cc(Cl)c3)sc2nc1=O	18%
COC(=O)C(C)Oc1ccc2cc(-c3ccc(OC)c(OC)c3)c(=O)oc2c1 (stereo unspecified)	6.7µg/mL*
CCOC(=O)c1ccsc1NC(=O)c1ccc2ncsc2c1	7%
Cc1ccc(NC(=O)c2cc3c(CO)cnc(C)c3oc2=Nc2cccc3ccccc23)cc1C	1%
CCCc1cc(=O)[nH]c2nnc(SCc3ccccc3F)n12	1%
O=C(Cc1ccccc1)Nc1nc2c(cc3c4c(cccc42)CC3)s1	2%
CCOC(=O)c1nn(-c2ccc(C(F)(F)F)cc2)c(=O)c2c(NC(=O)C3CC3)scc12	-3%
CN(C)c1ccc(/C=N/NC(=O)CCn2nnc3ccccc32)cc1	-5%
Continuation:
SMILES	Mtb growth
COC(=O)C(Cc1ccc(O)cc1)NC(=O)CCOc1ccc(OC)cc1 (stereo unspecified)	-22%
CCC(=O)Nc1nc(-c2ccccc2)c(C(C)=O)s1	28%
CCn1c(C)cc(C2NCCc3cc(O)c(O)cc32)c1C (stereo unspecified)	-7%
COCCNC(=O)CSc1ncnc2c1cnn2-c1ccc(Cl)cc1	-11%
COc1ccc(-c2cccc(NS(=O)(=O)c3ccc([N+](=O)[O-])cc3)c2)nn1	28%
O=C(CSc1nccn1-c1ccccc1)Nc1ccc2c(c1)OCO2	-4%
Cc1ccccc1-c1nnc(NC(=O)c2cc(Cl)ccc2[N+](=O)[O-])s1	-7%
CCS(=O)(=O)c1ccc(C(=O)Nc2nc3c(C)ccc(C)c3s2)cc1	3%
CC(=O)c1ccc(C(=O)Nc2nc3c(cc4c5c(cccc53)CC4)s2)cc1	5%
Cn1c(=O)[nH]c(=O)c2c1nc(N1CCC(C(N)=O)CC1)n2CCSc1nc2ccccc2o1	-7%
Cc1nnc(NC(=O)CS(=O)(=O)c2c[nH]c3ccccc23)s1	5%
CCCC1=C(C(=O)OCC)C(c2ccccc2C)C(C#N)=C(N)O1 (stereo unspecified)	14%
O=C(Nc1nnc(C23CC4CC(CC(C4)C2)C3)s1)C1CCCCC1	1%
O=C(NCCN1CCOCC1)c1sc2cc(Cl)ccc2c1Cl	7%
COc1cc2c(cc1OC)C(=O)OC2	0%
COc1cccc(Cn2cc3c(-c4ccc(Cl)cc4)nnc-3c3cc(OC)c(OC)cc32)c1	15µg/mL*
O=C(CSc1n[nH]c(=O)[nH]c1=O)c1ccc([N+](=O)[O-])cc1	-15%
CCCCCCCn1c(CN2CCN(c3ccc(OC)cc3)CC2)nc2c1c(=O)[nH]c(=O)n2C	-7%
Cc1cc(C)c(S(=O)(=O)NCCCn2ccnc2)cc1C	-6%
Cc1ccc(C(=O)Nc2nnc(-c3cc(C)ccc3C)o2)c(C)c1	7.3µg/mL*
Cc1ccc(NC(=O)CSc2ccc3nnc(-c4ccncc4)n3n2)cc1	2%
CCCc1cc(=O)[nH]c2nnc(SCC(=O)Nc3ccc(Cl)cc3)n12	-7%
Cc1cccc(CC(=O)Nc2c(C(=O)Nc3ccc([N+](=O)[O-])cc3)oc3ccccc23)c1	1%
Cc1ccc(-n2c(=O)[nH]c3c(C(N)=O)nc(-c4cccs4)nc32)cc1	6%
CCNc1nc2c(c(=O)[nH]c(=O)n2C)n1CC	8%

A second format for part of the listing above.
smiles | Mtb growth
CC(=O)c1ccc(C(=O)Nc2nc3c(cc4c5c(cccc53)CC4)s2)cc1 | 5%
Cn1c(=O)[nH]c(=O)c2c1nc(N1CCC(C(N)=O)CC1)n2CCSc1nc2ccccc2o1 | -7%
Cc1nnc(NC(=O)CS(=O)(=O)c2c[nH]c3ccccc23)s1 | 5%
CCCC1=C(C(=O)OCC)C(c2ccccc2C)C(C#N)=C(N)O1 (stereo unspecified) | 14%
O=C(Nc1nnc(C23CC4CC(CC(C4)C2)C3)s1)C1CCCCC1 | 1%
O=C(NCCN1CCOCC1)c1sc2cc(Cl)ccc2c1Cl | 7%
COc1cc2c(cc1OC)C(=O)OC2 | 0%
COc1cccc(Cn2cc3c(-c4ccc(Cl)cc4)nnc-3c3cc(OC)c(OC)cc32)c1 | 15µg/mL*
O=C(CSc1n[nH]c(=O)[nH]c1=O)c1ccc([N+](=O)[O-])cc1 | -15%
CCCCCCCn1c(CN2CCN(c3ccc(OC)cc3)CC2)nc2c1c(=O)[nH]c(=O)n2C | -7%
Cc1cc(C)c(S(=O)(=O)NCCCn2ccnc2)cc1C | -6%
Cc1ccc(C(=O)Nc2nnc(-c3cc(C)ccc3C)o2)c(C)c1 | 7.3µg/mL*
Cc1ccc(NC(=O)CSc2ccc3nnc(-c4ccncc4)n3n2)cc1 | 2%
CCCc1cc(=O)[nH]c2nnc(SCC(=O)Nc3ccc(Cl)cc3)n12 | -7%
Cc1cccc(CC(=O)Nc2c(C(=O)Nc3ccc([N+](=O)[O-])cc3)oc3ccccc23)c1 | 1%
Cc1ccc(-n2c(=O)[nH]c3c(C(N)=O)nc(-c4cccs4)nc32)cc1 | 6%
CCNc1nc2c(c(=O)[nH]c(=O)n2C)n1CC | 8%

Further compounds:
SMILES	Mtb growth
Nc1nc(SCCO)[nH]c(=O)c1NC(=O)c1ccco1	-8%
CCOc1ccc(C(=O)c2cn(Cc3ccccc3F)c3cc4c(cc3c2=O)OCCO4)cc1	21%
Cn1c(=O)c2c(SCC(=O)Nc3ccc(C(F)(F)F)cc3)nc(-c3cccs3)nc2n(C)c1=O	7%
Cc1cccc(Cn2c(CN3CCN(c4ccccc4F)CC3)nc3c2c(=O)[nH]c(=O)n3C)c1	48%
CCOC(=O)c1nn(-c2ccc(F)cc2)c(=O)c2c(NC(=O)c3ccc(S(=O)(=O)N(CC)CC)cc3)scc12	-4%
CC1CCCCN1S(=O)(=O)c1ccc(C(=O)Nc2nc(-c3ccc(F)cc3)cs2)cc1 (stereo unspecified)	44%
CCOC(=O)c1ccc2nc(NC(=O)c3ccccc3Cl)sc2c1	3%
O=C1CCc2cc(S(=O)(=O)NCc3ccc(Cl)cc3)cc3c2N1CC3	-2%
O=C(Nc1nnc(-c2ccc(Br)cc2)s1)c1ccc(N2C(=O)CCC2=O)cc1	-1%
O=C(CSc1nnc2[nH]c(=O)c(-c3ccc(Cl)cc3)nn12)c1ccc([N+](=O)[O-])cc1	-9%
COc1ccccc1-c1nnc(NC(=O)CSCc2ccccc2)s1	-1%
CCOC(=O)c1nn(-c2ccc(C)cc2)c(=O)c2c(NC(=O)c3ccc(Cl)c([N+](=O)[O-])c3)scc12	1%
CNC(=O)c1ccsc1NC(=O)c1ccc(S(=O)(=O)N2CCC(C)CC2)cc1	-2%
Cc1cc(C)c2nc(NNC(=O)c3ccc(N(C)C)cc3)sc2c1	3.2µg/mL*
O=C(CN1C(=O)CCC1=O)Nc1nnc(-c2ccc(Cl)s2)o1	-3%
Cc1ccc(NC(=O)c2oc3ccccc3c2NC(=O)c2ccc(S(=O)(=O)N3CCCC3)cc2)cc1	6%
Cc1ccc(N2C(=O)c3ccc(C(=O)OCC(=O)Nc4ccccc4C(F)(F)F)cc3C2=O)c(C)c1	-2%
O=C(Nc1nnc(-c2cccs2)o1)C1CCCCC1	27µg/mL*
N#Cc1ccc(C(=O)Nc2nc(-c3cc4ccccc4oc3=O)cs2)cc1	-3%
CCc1nnc(NC(=O)CSc2nc(-c3ccco3)nc3c2c(=O)n(C)c(=O)n3C)s1	12%
CN1CCN(C(c2ccc(F)cc2)c2sc3ncnn3c2O)CC1 (stereo unspecified)	3%
Nc1nc(SCc2cccc([N+](=O)[O-])c2)[nH]c(=O)c1NC(=O)c1ccc(F)cc1	-6%
COc1ccc(Cn2cc(C(=O)c3ccc(C)cc3)c(=O)c3cc4c(cc32)OCCO4)cc1	5%
CC(C)NC(=O)COc1cccc2c1CCNC2=O	-14%
COc1cc(C2c3sc(=O)[nH]c3SC3C4CCC(C4)C23)ccc1O (stereo unspecified)	6%
Next part
SMILES	Mtb growth
Cc1ccc(-c2c3c(nc4sc(C(=O)Nc5ccc(F)cc5)c(N)c24)CCC3)cc1	15%
CC(Nc1ncnc(N)c1[N+](=O)[O-])c1ccccc1 (stereo unspecified)	1%
COc1cc(/C=N/Nc2nnc3c(n2)[nH]c2ccccc23)ccc1OC(C)C	12%
Cc1cc(C)c2nc(NNC(=O)c3nc4ccccc4s3)sc2c1	4.2µg/mL*
CCN(CC)S(=O)(=O)c1ccc(C(=O)Nc2nc3c(F)cc(F)cc3s2)cc1	-1%
COc1ccc(C(=O)Nc2cc3c4c(c2)CCC(=O)N4CCC3)c(OC)c1	44%
CCOc1ccc(N2C(=O)CC(Sc3ncccc3C(=O)O)C2=O)cc1 (stereo unspecified)	33%
O=C(CN1C(=O)CC(c2ccccc2)Sc2ccccc21)Nc1ccc(F)cc1F (stereo unspecified)	48%
NC(=O)c1c(NC(=O)c2cc(Cl)cc(Cl)c2)sc2c1CCN(Cc1ccccc1)C2	-8%
COC(=O)CSCC(=O)Nc1nnc(-c2cc(OC)ccc2OC)s1	3%
Cc1ccc(S(=O)(=O)Nc2cccc(C(=O)Nc3ccc4nc(C)sc4c3)c2)cc1	36%
CC1=C(C(=O)Nc2cccc(C)c2)C(c2cc(Br)ccc2O)NC(=O)N1 (stereo unspecified)	7%
O=C(Nc1ccc(Cl)c(Cl)c1)c1ccc(S(=O)(=O)N2CCCCCC2)cc1	1%
CN1C(=O)Cc2cc(NS(C)(=O)=O)ccc21	-5%
CCCSc1nnc(NC(=O)c2ccc(-c3ccccc3)cc2)s1	-7%
CCOC(=O)COc1cccc2c(=O)n(CC(=O)N3CCN(C(=O)OCC)CC3)ccc12	0%
COc1ccc(-c2cnc(N)s2)cc1	62%
NC(=O)c1c(NC(=O)CN2C(=O)c3ccccc3C2=O)sc2c1CCN(Cc1ccccc1)C2	1%
CCOC(=O)N1CCc2c(sc(NC(=O)c3ccc(Br)s3)c2-c2nc3ccccc3s2)C1	4%
CCCC(=O)Nc1scc2c(C(=O)OCC)nn(-c3ccc(C)cc3)c(=O)c12	5%
Cc1csc2nc(O)c(C(=O)NCc3cccnc3)c(=O)n12	-20%
CCOC(=O)c1nn(-c2ccc(C(F)(F)F)cc2)c(=O)c2c(NC(=O)Cc3ccc(-c4ccccc4)cc3)scc12	2%
O=C(CCCN1C(=O)/C(=C/c2ccccc2F)SC1=S)Nc1ccc(O)cc1C(=O)O	0%
CN(C)c1ccc(C(=O)Nc2nc3c(s2)C(=O)CC(C)(C)C3)cc1	16%
O=C(Nc1nc2c(cc3c4c(cccc42)CC3)s1)c1ccc(S(=O)(=O)N2CCCC2)cc1	-9%
Remaining list, next part:
SMILES	Mtb growth
Cc1cc(C)nc(NS(=O)(=O)c2ccc(Nc3ncnc(N)c3[N+](=O)[O-])cc2)n1	-10%
COc1cc(C(=O)NCc2nnc(SC)n2-c2ccc([N+](=O)[O-])cc2)cc(OC)c1OC	-7%
CCN(CC)c1ccc(C(=O)Nc2ccc(-c3nc4ccccc4[nH]3)cc2)cc1	15%
Cc1ccc2sc(NC(=O)c3cc4c(ccc5ccccc54)oc3=O)nc2c1C	-5%
COc1cccc(NC2=C(Cl)C(=O)N(c3ccccc3C)C2=O)c1	-12%
CSc1nc2ccc3nc(NC(=O)c4ccccc4C)sc3c2s1	11%
COc1cc(C(C)=O)ccc1Oc1ncnc(N)c1[N+](=O)[O-]	9%
O=C(Cc1cc(=O)[nH]c(=O)[nH]1)NCc1ccc(Cl)cc1	-14%
C=CCn1c(N2CCCCCC2)nc2c1c(=O)[nH]c(=O)n2C	-15%
O=C(COc1ccc(Cl)cc1Cl)Oc1coc(CSc2ncccn2)cc1=O	-9%
CN(C)c1ccc(NC(=O)CC2SC(=Nc3ccccc3)N(c3ccccc3)C2=O)cc1 (stereo unspecified)	-8%
COc1ccc(C(=O)Nc2cc3c4c(c2)C(C)C(=O)N4CCC3)c(OC)c1 (stereo unspecified)	-1%
Cc1cc(OC(=O)c2ccc(S(=O)(=O)N3CCCC3)cc2)c([N+](=O)[O-])c(=O)[nH]1	-7%
CC(=O)c1ccc(NC(=O)c2ccc(S(=O)(=O)N3CCC(C)CC3)cc2)cc1	-1%
O=c1cc(-c2ccccc2)c2ccc(O)c(O)c2o1	-13%
O=C(Nc1ccc2c(c1)C(=O)NC2=O)c1cccc(Oc2ccccc2)c1	-3%
C=CCN1C(=O)/C(=C\c2ccc(C(=O)O)cc2)S/C1=N/c1nnc(CC)s1	1%
O=C(/C=C/c1cccs1)N1CCN(c2ccccc2F)CC1	14%
CCOC(=O)Cn1c(=NC(=O)C2CCCCC2)sc2cc(S(N)(=O)=O)ccc21	29%
O=C(N/N=C/C=C\c1ccccc1)c1cnccn1	-9%

Not all compounds are listed; the hit share may differ from the screen's.
